# Env fusion inh: inhibitors of HIV Env-mediated cell fusion | HeLa-JRFL Env/CEM21 cell fusion, luciferase | inhibition, % at 12.3 µM | 1.1% of 360,000 active;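 active means mean replicate inhibition score of at least 50 and every replicate individually at or above 50; inconclusive means only one of the two criteria met; inactive means mean below 50 and not all replicates reaching 50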;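 further: 0% = plate neutral controls and 100% = maraviroc near 300 nM; one replicate is shown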
# UUG fidelity: alters start codon recognition fidelity in yeast. S. cerevisiae UUG-firefly luciferase reporter, luminescence/redox ratio. activity score, % at 18.7 µM. 0.13% of 350,000 active. AID 602363;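 active means replicate mean at a twofold rise or more, about +100% in these data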;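 further: firefly luciferase made from a UUG start codon reports start codon fidelity; reporter light over untreated wells divided by growth signal over untreated wells; some hits fall short of that in this replicate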
# CSC inhib: blocks cancer stem cells; cancer stem cell-like cells viability, luminescence; inhibition, % at 7.5 µM; 1.1% of 300,000 active;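 active means mean at 75% or more and at least half the replicates too; inconclusive means mean and replicates disagree; tested in HMLE shEcad cells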;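 further: 0% = median of negative and 100% = median of positive control wells; the first replicate is given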
# Rce1 inhib: inhibitors of yeast Ras-converting enzyme | yeast membranes, quenched prenylated peptide cleavage fluorescence | calls only | 0.27% of 290,000 active;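 active means fall in fluorescence gain of 50% or more versus controls, with final raw signal at or below 3038400; inconclusive means same 50% fall but final raw signal above 3038400; inactive means fall in fluorescence gain under 50%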;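 further: plate controls were neutral control wells for no effect and wells lacking membranes for full effect; tested at 10 µM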
# Target sequence (Q03530 whole entry, looked up): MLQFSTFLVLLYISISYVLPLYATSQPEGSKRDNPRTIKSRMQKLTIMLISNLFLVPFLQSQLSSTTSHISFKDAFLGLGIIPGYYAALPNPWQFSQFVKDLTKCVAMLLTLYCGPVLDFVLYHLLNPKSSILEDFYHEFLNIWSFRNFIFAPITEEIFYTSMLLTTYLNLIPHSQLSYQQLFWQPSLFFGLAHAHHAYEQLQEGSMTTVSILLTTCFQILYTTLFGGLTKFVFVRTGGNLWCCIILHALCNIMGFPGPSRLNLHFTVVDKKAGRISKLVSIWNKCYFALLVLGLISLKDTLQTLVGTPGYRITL
# PABP FP inh: PABP-poly(A) binding inhibition. 1% of 290,000 active. inhibition, % at 35 µM. P11940. AID 2014. PABP-poly(A) RNA binding, fluorescence polarization;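 active means 50% or more with normal probe brightness, or confirmed in later tests; inconclusive means above 50% with abnormal brightness, or retests that disagree; inactive means below 50% or failed in later tests; about a fifth of its hits are not listed in these tables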;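 further: calls also rest on retests at 20 µM and on dose response follow-up; controls were probe without protein and protein plus probe with vehicle; some compounds called inactive have numbers as strong as hits; many hits fall short of the cut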
# eIF4H inh: inhibitors of RNA binding by human eIF4H; eIF4H fluorescence polarization binding assay; inhibition, % at 35 µM; 0.94% of 290,000 active; AID 2012;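 active means 50% or more with normal probe brightness, or confirmed in later tests; inconclusive means above 50% with abnormal brightness, or retests that disagree; inactive means below 50% or failed in later tests; about a fifth of its hits are not listed in these tables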;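 further: calls also rest on retests at 20 µM and on dose response follow-up; 0% = protein and probe with vehicle and 100% = probe without protein; strong numbers were not always called active; many hits fall short of the cut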
# MT1-MMP act inh: inhibitors of human MT1-MMP activation | GFP/RFP ratio change, % at 20 µM | 0.061% of 360,000 active | AID 651647 | HT1080 RFP-PRO-GFP cells, GFP/RFP ratio fluorescence, overnight; percent of plate control window, DMSO zero | P50281;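 active means GFP/RFP ratio change of at least 30% with cell ATP level not reduced by more than half and red fluorescence within 50% of control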; further: strong numbers were not always called active
#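 Material – HT1080 RFP-PRO-GFP cells · Control set – DMSO wells and RFP-L50D-GFP cells · Incubation – overnight cell settling, then overnight compound exposure, 37 °C, 5% CO2 · Compound dosing – single-point 20 µM compound, 1% DMSO · Read-out – GFP/RFP fluorescence ratio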
# eIF4H inh retest: further read-out of eIF4H inh, marked with its call; inhibition, %; compound at 20 µM; confirmation average;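 mean of two retest wells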
# PABP FP inh retest: second read-out of PABP FP inh, no call of its own (marks repeat the call); inhibition, %; compound at 20 µM; confirmation repeats;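 mean of two retest wells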
# MT1-MMP act inh RFP: further read-out of MT1-MMP act inh, marked with its call; RFP signal change, %; measured here: RFP expression control read;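 0 = vehicle wells; hits needed this value within 50% of zero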
# An asterisk follows results filed as active; i = inactive; ? = inconclusive; / = no result given. A portion of the library, so the mix of outcomes need not match the whole.
SMILES,Env fusion inh,UUG fidelity,CSC inhib,Rce1 inhib,PABP FP inh,eIF4H inh,MT1-MMP act inh,MT1-MMP act inh RFP,others
CCN(CC)S(=O)(=O)c1cccc(NC(=O)COC(=O)c2[nH]c(C)c(C(C)=O)c2C)c1,26,-11,/,/,/,/,8,-26,
Cc1ccc(N2C(=O)[C@@H]3C(C(=O)CCN4C(=O)c5ccccc5C4=O)=NN[C@@H]3C2=O)cc1,11,/,-6,i,6,7,2,2,
COc1ccc([C@@H]2CC=C(C(=O)O)[C@H](c3ccc(Br)cc3)N2S(=O)(=O)c2ccc(C)cc2)cc1OC,-17,-11,-1,/,/,/,2,-1,
Cc1cc(Cl)ccc1OCC(=O)NCCC(=O)O,/,-5,-1,i,-1,-4,-1,3,
COc1ccc(CCNC(=O)CNS(=O)(=O)c2cccs2)cc1OC,/,-4,9,i,7,4,2,-3,
COc1ccccc1Nc1cc(C)nc(Nc2ccccc2OC)n1,-16,-6,/,/,/,/,-1,-7,
CCCCn1c(N)c(N(C)C(=O)c2cc3c(s2)CCCCC3)c(=O)[nH]c1=O,/,-19,-11,/,/,/,1,5,
COc1ccccc1-c1coc2cc(OC(=O)/C=C/c3ccccc3)ccc2c1=O,-21,-7,-7,i,8,-3,-1,2,
C=CCc1cccc2cc(C(=O)Nc3ccccc3C(=O)O)c(=O)oc12,1,/,/,/,-14,20,0,-4,
CN(c1ccccc1C(=O)N1CCN(c2ccccc2)CC1)S(C)(=O)=O,28,-11,1,/,-5,4,1,1,
O=C(N/N=C/C=C\c1ccco1)c1cccs1,9,/,/,i,9,81,-6,-2,eIF4H inh retest=-5;PABP FP inh retest=-2
O=C(NCc1n[nH]c(=S)n1-c1cccc(C(F)(F)F)c1)c1ccco1,0,-14,-1,/,2,-3,5,2,
O=C(OCc1ccccc1F)c1cc2ccccc2cc1O,-2,-9,-14,i,8,-2,-3,-1,
C#CCOCCOCCOCCNc1nc(N2CCN(C(=O)[C@H](CCCCN)n3cc([C@@H](N)[C@H](C)CC)nn3)CC2)nc(N2CCN(C(=O)[C@H](CCC(=O)O)n3cc([C@@H](N)CCSC)nn3)CC2)n1,-16,5,/,/,/,/,4,8,
Cc1ccc(S(=O)(=O)N2CCOCC2)c(C)c1NS(C)(=O)=O,23,-24,-16,i,-9,-2,4,-2,
COc1ccc(C(=O)N(c2ccccn2)C2CCCCC2)c(OC)c1,7,17,1,i,4,-1,0,2,
CCCCC(=O)Nc1ccccc1C#N,-86,/,-8,i,-4,-1,0,3,
COc1ccccc1N1CCN(C(=O)c2cc(C)on2)CC1,6,-9,/,i,4,7,-2,-1,
Cc1cc(C)c(S(=O)(=O)NCCCn2ccnc2)c(C)c1,21,/,-11,i,2,-8,0,-3,
CCOC(=O)CSc1nc2sc3c(c2c(=O)[nH]1)CC(C)(C)OC3,-18,-5,-17,i,-8,-3,3,6,
CC(C)N(C(=O)CSc1nnc(Cn2nnc3ccccc32)n1C)C(C)C,/,-8,-27,i,-4,-8,9,12,
CN(CC(=O)N1CCN(c2ccccn2)CC1)S(=O)(=O)c1cccc2nsnc12,3,-2,2,i,9,7,3,7,
Cc1ccc(N(CC(=O)NCC2CCCO2)C(=O)CCC(=O)Nc2ccccn2)cc1 (stereo not drawn),-1,/,-13,i,-9,1,3,3,
Cc1ccc(S(=O)(=O)NCC2CCC(C(=O)N3CCOCC3)CC2)cc1 (stereo not drawn),10,-1,1,i,-10,-10,1,3,
Cc1cc([N+](=O)[O-])ccc1NC(=O)CSc1nnc(C)n1C,-12,9,-4,i,-1,-5,3,1,

# An excerpt from further up:
SMILES,Env fusion inh,UUG fidelity,CSC inhib,Rce1 inhib,PABP FP inh,eIF4H inh,MT1-MMP act inh,MT1-MMP act inh RFP,others
Cc1ccc(S(=O)(=O)N2CCOCC2)c(C)c1NS(C)(=O)=O,23,-24,-16,i,-9,-2,4,-2,
COc1ccc(C(=O)N(c2ccccn2)C2CCCCC2)c(OC)c1,7,17,1,i,4,-1,0,2,
CCCCC(=O)Nc1ccccc1C#N,-86,/,-8,i,-4,-1,0,3,
COc1ccccc1N1CCN(C(=O)c2cc(C)on2)CC1,6,-9,/,i,4,7,-2,-1,

# Continuation:
SMILES,Env fusion inh,UUG fidelity,CSC inhib,Rce1 inhib,PABP FP inh,eIF4H inh,MT1-MMP act inh,MT1-MMP act inh RFP,others
COC(CNC(=O)C(=O)NCC1OCCN1S(=O)(=O)c1ccccc1)OC (stereo not drawn),-25,-8,-6,i,0,3,-2,0,
COc1cc(/C=N/NC(=O)c2cc(-c3ccccc3)nc3ccccc23)cc(OC)c1O,-37,-6,-3,i,3,-4,-2,-2,
CCOC(=O)Cn1c(=O)oc2cc(S(=O)(=O)N(CCN(C)C)Cc3ccccc3)ccc21,-20,-9,-3,i,-1,4,2,2,
Fc1ccc(-c2csc(NC(=S)Nc3ccccc3)n2)cc1,-3,-20,/,i,-9,-2,-10,-11,
c1ccc(COc2ccc(OCCN3CCCC3)cc2)cc1,/,/,14,i,-10,-11,3,-1,
CC(C)NC(=O)NC(=O)COC(=O)/C=C/c1ccc2c(c1)OCO2,-1,-5,3,i,16,2,1,0,
O=C(C[C@H]1C/C=C\C[C@H](NC(=O)OCC2c3ccccc3-c3ccccc32)C(=O)OC[C@@H]2CCCN2C1=O)NCCO,-29,-13,/,/,/,/,-1,5,
O=C1/C(=C/c2ccccn2)SC(=S)N1N1CCOCC1,-7,/,-8,i,12,1,-1,0,
COc1cccc(C(=O)Nc2nnc(-c3ccc(Cl)cc3)o2)c1,19,-3,62,i,6,7,6,2,
CCCNC(=O)Nc1cc(OC)c(OC)cc1Cc1nccc2cc(OC)c(OC)cc12,-2,-6,-1,i,14,9,-5,-2,
Cc1cc(=O)n2[nH]c(=O)c(N=Nc3ccccc3)c2[nH]1,/,-6,5,i,-5,-3,7,1,
CCOCCCNC(=S)N(CCO)Cc1cc2cc3c(cc2[nH]c1=O)OCCO3,3,-13,0,i,-3,0,-5,-1,
Cc1cc(C)c(CN2CCN(C(=O)CC[C@H]3O[C@@H](n4ccc(=O)[nH]c4=O)[C@H](O)[C@@H]3O)CC2)c(C)c1,1,-20,/,/,/,/,3,2,
Nn1c(SCC(=O)Nc2ccc3c(c2)OCCO3)nnc1C(F)(F)F,/,-11,0,i,26,3,3,2,
O=C(CN1CCCCC1)Nc1ccc(S(=O)(=O)N2CCCCCC2)cc1,-33,-9,56,i,-7,-8,1,-6,
COc1ccc(NC2=CC(c3ccc(OC)c(OC)c3)N(c3ccc(OC)cc3)C2=O)cc1 (stereo not drawn),12,/,-18,i,1,-8,-6,-2,
S=C(Nc1cc(Cl)ccc1Oc1ccccc1)N1CCN(c2ccccn2)CC1,-7,-4,15,i,2,-5,2,-4,
COc1cccc(/C=N/Nc2nc3ccccc3[nH]2)c1O,41,-33,68,i,2,18,7,-8,
CC(=O)Oc1c(Cl)cc(Cl)cc1/C=C/c1ccc2ccccc2n1,-33,-17,109*,i,-3,-7,-265,-9,
COc1cccc(CNS(=O)(=O)c2c(C(=O)N3CCCCCC3)c(C)n(C)c2C)c1,10,-8,4,i,4,7,6,9,
COc1ccc(/C=C/C(=O)Nc2nc(N)n(-c3ccccc3)n2)cc1,0,/,3,i,-6,5,6,6,
O=C(CNC(=O)c1cc2c(n(-c3ccccc3)c1=O)CCCC2=O)c1ccccc1,-3,-7,-2,i,-4,-5,0,-1,
NC(=O)c1cc(S(=O)(=O)N2CCOCC2)ccc1N1CCCC1,11,-14,-9,i,9,-8,0,-3,
COC(=O)/C(=C/c1ccc(F)cc1)NC(C)=O,-8,-11,-3,i,0,-6,11,16,
Cc1cc(C)n2nc(C(=O)N(C)C(c3ccccc3)c3ccccc3)nc2n1,3,-3,-9,i,-8,0,-2,0,
# (cont.)
SMILES,Env fusion inh,UUG fidelity,CSC inhib,Rce1 inhib,PABP FP inh,eIF4H inh,MT1-MMP act inh,MT1-MMP act inh RFP,others
COC1=NS(=O)(=O)c2ccccc21,-11,/,-2,i,6,3,-5,0,
[O-]/[N+](=C\c1ccncc1)c1ccc(Br)cc1,/,/,-15,i,2,-7,0,-3,
Cc1cc(-n2c(C)cc(C(=O)CSc3nc(N)cc(=O)[nH]3)c2C)no1,4,-8,-11,i,4,21,-7,-26,
CN1CCN(S(=O)(=O)c2cccc(C(=O)Oc3cccc(C#N)c3)c2)CC1,2,1,-13,i,/,/,1,-1,
CN(C)CCN(C(=O)c1ccc2c(c1)OCCO2)c1nc2ccc(Cl)cc2s1,22,-12,3,i,-17,-5,1,-3,
CN=c1nc(-c2ccccc2)n(-c2ccccc2)s1,-49,-33,15,/,/,/,0,1,
N#Cc1c(NC(=O)c2ccc(Cn3cc(Br)cn3)o2)sc2c1CCCCC2,/,-11,106*,i,5,2,-3,-6,
COc1cc(Nc2cc(C)nc3ncnn23)cc(OC)c1OC,31,-19,/,i,12,8,7,10,
CCC(C)(C)NC(=O)Cn1c(-c2ccccc2)cc(C(C)=O)c1C,0,/,-3,i,0,6,-3,0,
CC(C)(C)NC(=O)COc1ccc(CNc2ncn[nH]2)cc1,-6,/,-12,i,-9,-16,2,3,
CCc1ccc(NC(=S)Nc2ccc(S(=O)(=O)Nc3ncccn3)cc2)cc1,-8,/,-7,i,-2,-14,2,4,
COc1ccccc1-n1c(-c2cc(-c3ccc(F)cc3)n[nH]2)n[nH]c1=S,-3,-23,-4,/,-12,2,0,-2,
CC(C)(C)C1CCC(C(=O)OCC(=O)N2CCN(C(=O)c3ccco3)CC2)CC1 (stereo not drawn),14,6,-1,i,-9,-2,-1,-3,
Oc1ccc(-c2nccc(-c3ccccn3)n2)cc1,-105,-6,-4,i,-8,-8,-1,-4,
Cc1ccccc1-n1c(SCC(=O)N(C)C2CCS(=O)(=O)C2)nc2ccccc2c1=O (stereo not drawn),-3,-8,-5,i,0,4,2,4,
CCOc1ccccc1N1CCN(Cc2cc3c(cc2[N+](=O)[O-])OCO3)CC1,11,0,-1,i,56,-3,-1,-1,eIF4H inh retest=-8;PABP FP inh retest=17
Nc1ccc(-c2nc3c(ccc4ccccc43)[nH]2)cc1,-36,-4,7,i,-2,-1,12,-3,
Cc1c(NC(=O)c2ccc(Cl)c(S(=O)(=O)N3CCOCC3)c2)c(=O)n(-c2ccccc2)n1C,-75,-2,-1,i,-9,2,3,7,
COc1cccc(NC(=O)C2Cc3ccccc3CN2C(=O)c2ccco2)c1 (stereo not drawn),-14,-5,6,i,11,6,4,8,
CCOC(=O)CNS(=O)(=O)c1c(C)noc1C,/,-19,-3,i,1,-2,1,2,
Cc1ccc(/C=N/NC(=O)c2nnn(-c3nonc3N)c2CSc2ccccc2)s1,2,-23,-4,i,-7,2,-1,3,
Cc1ccc(NC(=O)c2cc(=O)[nH]c3ccc(S(=O)(=O)N4CCOCC4)cc23)cc1,-4,-16,4,/,/,/,1,1,
CC(C)NC(=O)C1(C)CCN1Cc1ccc(-c2ccccc2)cc1 (stereo not drawn),57*,-22,/,/,/,/,0,-5,
CC1(C(=O)NS(=O)(=O)c2ccccc2)CCN1C(=O)CC1CCCCC1 (stereo not drawn),-11,12,/,/,/,/,3,4,
CNc1nc(-c2ccccc2)nc(-c2ccccc2)c1C#N,/,-24,2,i,15,2,4,2,
Nc1ccc(OCCCc2c(N)nc(N)nc2N)cc1,-19,-19,2,i,?,25,-6,-4,

# Compound activity as filed in PubChem.
